Mtb betalactam: beta-lactam sensitization of Mtb H37Rv; AID 434955; inhibition, % at 25 µM; M. tuberculosis H37Rv growth with meropenem, percent inhibition; hits of this screen are not shown here; 330,000 compounds, 0.27% hits;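 active = about 74% or more and at least 40 points above the plate without the antibiotic, then above 30% in a dose series; inconclusive = first-round hits that could not be retested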;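 also: growth measured after seven days incubation then overnight dye step; 0% = bacteria only wells and 100% = bacteria with antibiotic; twin plates without the antibiotic show which effects depend on it; some results filed as inactive read as strong as hits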
Mtb H37Rv: M. tuberculosis H37Rv growth inhibitors, H37Rv strain (AID 1626) | 220,000 compounds, 0.95% hits | inhibition, % at 10 µM; hits with a dose series show IC50 in µM | M. tuberculosis H37Rv growth inhibition; higher % means a stronger effect;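 active = confirmed in a dose series; inconclusive = inhibition above 80% but not taken into the dose series; inactive = below 80% or under 30% at every dose of the series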;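 also: bacteria incubated seven days before Alamar blue readout; 0% = bacteria only wells and 100% = bacteria with antibiotic wells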
RecA intein inh: Mtb RecA intein splicing inhibition; inhibition, %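 (about 9 µM by stock and volumes)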; cell-free RecA intein splicing, fluorescence; AID 2221; 290,000 compounds, 0.75% hits; in the data active = inhibition above about 30%; inconclusive = no clear call, values can overlap the other calls;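 also: 0% = vehicle wells and 100% = reference inhibitor control wells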
Target sequence (P9WHJ3 whole entry, looked up): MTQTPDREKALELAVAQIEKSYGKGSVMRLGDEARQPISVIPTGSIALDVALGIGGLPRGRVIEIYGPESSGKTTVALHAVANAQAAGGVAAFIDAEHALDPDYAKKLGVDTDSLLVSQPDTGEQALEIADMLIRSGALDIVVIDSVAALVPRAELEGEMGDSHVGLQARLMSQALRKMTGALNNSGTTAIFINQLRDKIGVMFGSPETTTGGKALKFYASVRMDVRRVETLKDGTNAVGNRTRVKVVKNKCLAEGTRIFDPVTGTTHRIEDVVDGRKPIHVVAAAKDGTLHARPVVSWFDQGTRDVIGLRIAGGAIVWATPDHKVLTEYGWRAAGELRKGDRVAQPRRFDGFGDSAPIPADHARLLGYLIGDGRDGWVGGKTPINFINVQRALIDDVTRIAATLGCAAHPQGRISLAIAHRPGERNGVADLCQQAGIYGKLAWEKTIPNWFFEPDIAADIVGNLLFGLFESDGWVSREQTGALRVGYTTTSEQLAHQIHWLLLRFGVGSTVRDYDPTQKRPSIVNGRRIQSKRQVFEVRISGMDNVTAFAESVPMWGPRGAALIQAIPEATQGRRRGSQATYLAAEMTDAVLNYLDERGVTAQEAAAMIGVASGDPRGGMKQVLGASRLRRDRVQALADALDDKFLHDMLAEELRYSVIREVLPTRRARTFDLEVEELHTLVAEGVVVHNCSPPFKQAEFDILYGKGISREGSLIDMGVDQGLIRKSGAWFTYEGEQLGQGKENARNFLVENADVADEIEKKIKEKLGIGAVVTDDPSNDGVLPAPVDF
YopH PTP inh: YopH (Yersinia) phosphatase inhibition; fluorescence Ex485/Em525; inhibition, %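 (about 10 µM by stock and volumes)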; 140,000 compounds, 0.16% hits; AID 898;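 active = inhibition of 50% or more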;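 also: controls were vehicle for no effect and minimum signal wells for full effect; inactives centre near -20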
Arbovirus anti: arbovirus infection inhibition; arbovirus infection cell-based antiviral screen; inhibition, % at 10 µM; 200,000 compounds, 0.37% hits;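 active = inhibition from about 30%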;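 also: bluetongue infection of BSR cells; cell survival read as ATP light after 72 h; 0% = infected wells without compound and 100% = uninfected wells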
Arbovirus anti repeat: recorded beside Arbovirus anti, whose call it bears; inhibition, %; measured here: 10K subset replicate screen; many hits read low in the repeat;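 first of two repeat runs on a subset; 0% = infected and 100% = uninfected wells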
* marks the source's active call; other numbers are inactive results; ? = inconclusive; · = not tested or not shown. Not all compounds are listed. The share of hits here may be higher or lower than overall.

Start of the data: the first two compounds (preview)
SMILES	Mtb betalactam	Mtb H37Rv	RecA intein inh	YopH PTP inh	Arbovirus anti	others
CC(=O)c1ccc(N(C(=O)Cn2nnc3ccccc32)C(C(=O)NC2CCCCC2)c2cn(C)nc2C)cc1 (centres undefined)	·	-6%	1.4	1	6
CCCOc1ccc(CNC(=S)Nc2ccccc2)cc1Cl	5	·	13	·	·

Results (from the top)
SMILES	Mtb betalactam	Mtb H37Rv	RecA intein inh	YopH PTP inh	Arbovirus anti	others
CC(=O)c1ccc(N(C(=O)Cn2nnc3ccccc32)C(C(=O)NC2CCCCC2)c2cn(C)nc2C)cc1 (centres undefined)	·	-6%	1.4	1	6
CCCOc1ccc(CNC(=S)Nc2ccccc2)cc1Cl	5	·	13	·	·
O=C1CCC(C(=O)NCc2ccccc2)N1 (centres undefined)	7	·	-0.1	·	·
Cc1ccccc1C(=O)NCC(=O)OCCCOC(=O)CNC(=O)c1ccccc1C	-11	·	-3.2	·	·
O=C(NC1CC(=O)c2sccc21)c1cccc(C(F)(F)F)c1 (centres undefined)	-13	5%	2.9	·	-1
NC(=O)C1=C[C@@H](c2ccccc2)C[C@@H](OCc2ccc(CO)cc2)O1	9	-6%	0.7	·	0
Cc1cc(=O)c2c(C)ccc(C)c2[nH]1	2	-1%	-0.7	·	·
Cc1ccc(CNc2ccc(N3CCOCC3)c(C(=O)O)c2)s1	5	-3%	-3.6	-28	6
O=C(COc1ccccc1[N+](=O)[O-])NNC(=O)Nc1cccc2ccccc12	-6	0%	3.9	·	-1
COc1cccc(CC(=O)N2CCN(S(=O)(=O)c3ccc(Br)cc3)CC2)c1	-5	·	0.6	·	·
NS(=O)(=O)c1ccc(NS(=O)(=O)c2ccc3c(c2)OCCO3)cc1	3	·	0.7	·	·
CCOC(=O)C1CCN(C(=O)c2ccccc2NS(=O)(=O)c2ccccc2)CC1	-4	·	-1.9	·	·
CCCCCCCCOC(=O)c1c(CSC(=N)N)n(C)c2cc(Br)c(OC(C)=O)cc12	94	11µM*	90*	·	·
O=C(Nc1ccc(Cl)c(S(=O)(=O)N2CCCCC2)c1)C1=COCCO1	-3	·	-7.3	·	·
CC(C)Oc1ccc(Br)cc1C(=O)N/N=C/c1c[nH]c2ccccc12	-3	·	-3.0	·	·
CC1Cc2ccccc2N1C(=O)CSc1nc(-c2ccccc2)cs1 (centres undefined)	-2	10%	1.0	-27	-9
COc1cccc(NC(=O)CCc2nnc3ccc(N4CCC(C)CC4)nn23)c1	0	·	0.1	·	·
CC(C)CC(=O)Nc1cccc(-c2csc(-c3ccccc3)n2)c1	93	49%	12	-16	-28
Cn1nnnc1SCC(=O)Nc1ccccc1C(=O)NC1CC1	6	-9%	-4.0	-18	-5
CCCCNS(=O)(=O)C1CCS(=O)(=O)C1 (centres undefined)	-7	-8%	-0.1	-19	0
C=CCn1c(-c2c(C)nc3cc(C)ccn23)n[nH]c1=S	0	2%	8.1	-23	9
Cc1ccc(CN(Cc2cc3cc(C)ccc3[nH]c2=O)C(=O)N2CCOCC2)cc1	0	-3%	0.8	-11	-11
N#CCC(=O)N/N=C/c1cn(Cc2cccc3ccccc23)c2ccccc12	1	0%	-1.0	·	·
O=C(COC(=O)c1cccc(S(=O)(=O)NCc2ccccc2)c1)c1ccc2c(c1)OCCO2	8	7%	0.7	-26	12
CCOC(=O)C1(CC2CCCCO2)CCN(C2CCSCC2)CC1 (centres undefined)	-2	1%	-6.8	·	4
N#C/C(=C/c1ccc(N2CCOCC2)o1)C(=O)N1CCOCC1	-8	-12%	-11	-14	0
O=C(NCCCc1ccc(F)cc1)C1CCC(=O)N(CCN2CCOCC2)C1 (centres undefined)	4	·	-1.6	·	·
Cc1ccc2c(CC(=O)Nc3cccc(S(=O)(=O)N4CCOCC4)c3)coc2c1	-7	5%	2.8	·	21
COc1cc(C(c2nnnn2C2CCCC2)N2CCN(C)CC2)cc(OC)c1OC (centres undefined)	3	2%	-4.6	-33	5
O=C(Nc1ccccc1Oc1ccccc1)c1cnccn1	-11	-8%	3.5	-2	5
O=C(NC(=S)NC(c1ccccc1)c1ccncc1)c1ccccc1 (centres undefined)	0	7%	14	15	7
CCOC(=O)c1cc2c(ccn2-c2ccc(F)cc2)n1CC(=O)NC(C)(C)C	3	-3%	1.1	·	-1
Cc1ccc(CNC(=O)CCCn2nc(C)n3ccnc3c2=O)cc1	-3	·	-4.1	·	·
Cc1ccc(-c2nnc(Cc3ccc([N+](=O)[O-])cc3)o2)cc1	-1	15%	-0.7	·	3
CCC(C)[C@H](N)c1cn([C@@H](Cc2cc3ccccc3[nH]2)C(=O)N2CCNCC2)nn1 (some centres undefined)	-3	-5%	-2.2	·	-2
Cc1cc(C)c(S(=O)(=O)N(C)CC(=O)NC2CCCC2)c(C)c1	-4	-4%	-0.4	-21	2
COc1ccc(OC)c(NC(=O)C2COc3ccccc3O2)c1 (centres undefined)	-4	0%	0.6	-21	15	Arbovirus anti repeat=9
Cc1cc(C(=O)CCl)c(C)n1CCc1ccc(Cl)cc1	100	?	62*	·	-22
CCOCc1cc(=O)[nH]c(SC)n1	·	-10%	2.2	·	·
Cc1cc2nccc(-c3ccco3)n2n1	-3	-2%	-1.1	-19	1
COc1ccc(-n2c(-c3ccc(Cl)cc3Cl)n[nH]c2=S)c(OC)c1	0	·	-0.1	·	·
Cc1c(NC(=O)C(C)OC(=O)c2cc3c4ccccc4n(C)c3s2)c(=O)n(-c2ccccc2)n1C (centres undefined)	4	-7%	1.5	3	-1
Cn1c(=O)oc2cc(S(=O)(=O)N3CCN(c4ccccn4)CC3)ccc21	1	10%	-0.2	-31	-1	Arbovirus anti repeat=-6
CC(=O)Nc1ccc(S(=O)(=O)Oc2cccc(N3C(=O)C4CC=CCC4C3=O)c2)cc1 (centres undefined)	7	-6%	0.5	-18	3
COc1ccc(CN(C)CC(=O)Nc2ccc(Cl)cc2C(F)(F)F)c(OC)c1	2	4%	8.8	-4	-11
CCOC(=O)c1cccc(NC(=O)CSc2nnc(COc3ccccc3C)o2)c1	53	31%	-3.3	-21	2
O=C(Nc1ccccc1Cl)C1CCN(S(=O)(=O)c2cccc3nonc23)CC1	-4	·	-2.4	·	·
C=C(C)C1Cc2c(C)nn(-c3cccc4ccccc34)c2C1 (centres undefined)	·	14%	·	-22	-37

Some of these compounds in order of number of heavy atoms, high to low:
SMILES	Mtb betalactam	Mtb H37Rv	RecA intein inh	YopH PTP inh	Arbovirus anti	others
Cc1c(NC(=O)C(C)OC(=O)c2cc3c4ccccc4n(C)c3s2)c(=O)n(-c2ccccc2)n1C (centres undefined)	4	-7%	1.5	3	-1
O=C(COC(=O)c1cccc(S(=O)(=O)NCc2ccccc2)c1)c1ccc2c(c1)OCCO2	8	7%	0.7	-26	12
CC(=O)Nc1ccc(S(=O)(=O)Oc2cccc(N3C(=O)C4CC=CCC4C3=O)c2)cc1 (centres undefined)	7	-6%	0.5	-18	3
Cc1ccc(CN(Cc2cc3cc(C)ccc3[nH]c2=O)C(=O)N2CCOCC2)cc1	0	-3%	0.8	-11	-11
COc1cccc(NC(=O)CCc2nnc3ccc(N4CCC(C)CC4)nn23)c1	0	·	0.1	·	·
CCOC(=O)c1cc2c(ccn2-c2ccc(F)cc2)n1CC(=O)NC(C)(C)C	3	-3%	1.1	·	-1
COc1cccc(CC(=O)N2CCN(S(=O)(=O)c3ccc(Br)cc3)CC2)c1	-5	·	0.6	·	·
Cn1c(=O)oc2cc(S(=O)(=O)N3CCN(c4ccccn4)CC3)ccc21	1	10%	-0.2	-31	-1	Arbovirus anti repeat=-6
Cc1ccc(CNC(=O)CCCn2nc(C)n3ccnc3c2=O)cc1	-3	·	-4.1	·	·
CC(C)CC(=O)Nc1cccc(-c2csc(-c3ccccc3)n2)c1	93	49%	12	-16	-28
Cn1nnnc1SCC(=O)Nc1ccccc1C(=O)NC1CC1	6	-9%	-4.0	-18	-5
Cc1ccc(-c2nnc(Cc3ccc([N+](=O)[O-])cc3)o2)cc1	-1	15%	-0.7	·	3
C=CCn1c(-c2c(C)nc3cc(C)ccn23)n[nH]c1=S	0	2%	8.1	-23	9
CCCCNS(=O)(=O)C1CCS(=O)(=O)C1 (centres undefined)	-7	-8%	-0.1	-19	0
Cc1cc(=O)c2c(C)ccc(C)c2[nH]1	2	-1%	-0.7	·	·
CCOCc1cc(=O)[nH]c(SC)n1	·	-10%	2.2	·	·

More entries:
SMILES	Mtb betalactam	Mtb H37Rv	RecA intein inh	YopH PTP inh	Arbovirus anti	others
CC1CCC2(CC1)NC(CO)(CO)CO2 (centres undefined)	0	-16%	0.7	-15	7
CC(C)C1CC(c2csc(N)n2)CCO1 (centres undefined)	-7	-7%	-1.1	10	0
O=C(Nc1ccc(OC(=O)N2CCCCC2)cc1)N1CCOCC1	0	4%	-0.1	·	-4
FC(F)(F)c1cccc(-c2cc(C3CCNCC3)[nH]n2)c1	1	·	0.3	·	·
O=C(Nc1cc(NC(=O)c2ccccc2F)ccc1Cl)c1ccccc1	-3	·	1.0	·	·
COc1ccc(N(CC(=O)N2CCCCC2)S(=O)(=O)c2c(C)nn(C)c2C)cc1	10	4%	1.8	-47	-1	Arbovirus anti repeat=-1
N#Cc1ccc(COC(=O)c2cnc3ccccc3n2)cc1	-4	·	4.3	·	·
COc1cc(NS(=O)(=O)c2csc(C(N)=O)c2)cc(OC)c1	5	·	0.3	·	·
Cc1nc2nc3c(c(=O)n2[nH]1)CCCC3	55	-1%	3.0	-21	6
CC12CCC(=O)N1C(C(=O)Nc1cccc(F)c1)CS2 (centres undefined)	-12	·	5.8	·	·
O=c1[nH]c(CN2CCN(c3ccc(F)cc3)CC2)nc2ccccc12	-5	3%	-5.9	-14	10
Cn1c(SCC(=O)NCCc2ccccc2)nnc1-c1ccco1	-1	-8%	-4.0	-15	1
CCCCC[C@H](O)/C=C/[C@@H]1[C@@H](C/C=C\CCCC(=O)OC)[C@@H](O)C[C@H]1O	7	-3%	41*	-21	14
COc1cc(Cn2c(C(=O)O)cc3sccc32)cc(OC)c1OC	·	·	1.5	-40	5
Cc1cccn2c(=O)c(/C=C(\C#N)S(=O)(=O)c3ccccc3)c(N3CCCCC3)nc12	72	7%	-9.8	·	·
COC/C=C/C1=CC2=CC(=O)C(C)(OC(=O)c3cnc4ccccc4n3)C(=O)C2=CN1Cc1ccccc1 (centres undefined)	-1	-8%	4.6	·	·
CC1CCN(c2nc3c(c(=O)[nH]c(=O)n3C)n2CC(C)CSc2nnnn2-c2ccccc2)CC1 (centres undefined)	5	7%	-0.3	-12	-11
Cc1ccc2oc(C(=O)Nc3ccc(S(=O)(=O)Nc4onc(C)c4C)cc3)cc(=O)c2c1	-1	·	-0.1	·	·
COc1ccccc1NS(=O)(=O)c1cc(C(=O)NCC(c2cccs2)N2CCOCC2)ccc1C (centres undefined)	-17	·	-1.4	·	·
CCN1C(=O)C(CC(=O)Nc2ccc(OC)cc2)N(Cc2ccc(OC)c(OC)c2)C1=S (centres undefined)	-2	2%	·	·	·
Cc1ccc(S(=O)(=O)N2CCCCC2)cc1C(=O)Nc1ccccn1	-2	·	1.0	·	·
Cc1noc(C)c1C(=O)N(C)CC(=O)Nc1ccc(F)c(F)c1F	-11	·	-2.4	·	·

From PubChem
